VCAM-1 down – suppression of endothelial VCAM-1 upregulation – cell-based, plate reader, pooled HUVEC, TNFa stimulus (AID 454); HUVEC TNFa-induced VCAM-1 surface immunofluorescence, plate reader; numbers were filed only for top-ranked candidate wells; inhibition, % at 5 µM; 0.2% of 10,000 active;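 active = compound among top-ranked inhibitors of TNF-induced VCAM-1 adhesion protein staining, with the hit upheld by image or statistical review; inactive = the rest, including hits rejected on review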;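 note: 0% = TNFa with vehicle and 100% = cells without TNFa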
VCAM-1 up imaging – enhancers of VCAM-1 display on endothelial cells, imaging, high-content imaging, pooled HUVEC, TNFa stimulus (AID 457). 0.2% of 10,000 active. calls only. Pooled HUVEC, TNFa-induced VCAM-1 immunofluorescence imaging; hits of this screen are not shown here;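 active = a top-ranked rise in VCAM-1 staining upheld on image or statistical review; inactive = the rest, including candidates rejected on review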;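 note: compounds tested at 5 µM in the well; cells exposed to compound for 24 hours before fixing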
FPR ligand – human FPR ligand, with FPRL1 counter-screen; 0.74% of 24,000 active; inhibition, %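 (tested at 6.7 µM)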; P21462; FPR-expressing cells, fluorescent ligand binding, flow cytometry;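 note: 0% = buffer wells and 100% = receptor blocker peptide wells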
Target sequence (P21462 whole entry, looked up): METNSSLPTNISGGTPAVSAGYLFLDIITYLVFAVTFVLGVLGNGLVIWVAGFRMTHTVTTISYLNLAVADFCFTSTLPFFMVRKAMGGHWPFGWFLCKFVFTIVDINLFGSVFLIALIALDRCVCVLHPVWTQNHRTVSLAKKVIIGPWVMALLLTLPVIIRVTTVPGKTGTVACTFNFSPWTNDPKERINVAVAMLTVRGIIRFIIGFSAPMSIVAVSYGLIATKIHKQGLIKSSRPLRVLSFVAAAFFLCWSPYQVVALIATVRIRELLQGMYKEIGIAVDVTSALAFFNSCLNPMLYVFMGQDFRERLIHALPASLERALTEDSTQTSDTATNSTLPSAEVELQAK
FPRL1 binder – ligands of human FPRL1, also counter-screen for FPR ligands; P25090; FPRL1-expressing cells, fluorescent ligand binding inhibition, flow cytometry; inhibition, %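 (tested at 6.7 µM)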; 0.3% of 24,000 active; AID 441;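 note: 0% = buffer alone and 100% = receptor blocker peptide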
Target sequence (P25090 whole entry, looked up): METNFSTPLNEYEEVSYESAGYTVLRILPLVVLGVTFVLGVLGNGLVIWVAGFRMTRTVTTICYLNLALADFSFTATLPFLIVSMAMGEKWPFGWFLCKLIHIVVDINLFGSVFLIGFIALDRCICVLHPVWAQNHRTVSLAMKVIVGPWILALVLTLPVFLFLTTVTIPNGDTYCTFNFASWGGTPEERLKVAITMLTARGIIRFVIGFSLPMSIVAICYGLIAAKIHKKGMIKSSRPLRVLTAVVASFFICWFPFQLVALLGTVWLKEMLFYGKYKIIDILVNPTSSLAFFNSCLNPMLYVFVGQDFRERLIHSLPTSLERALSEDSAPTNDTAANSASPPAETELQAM
VCAM-1 down imaging – suppression of endothelial VCAM-1 upregulation – imaging, high-content imaging, pooled HUVEC, TNFa stimulus (AID 456) | HUVEC TNFa-induced VCAM-1 surface expression, immunofluorescence imaging; numbers were filed only for top-ranked candidate wells | inhibition, % at 5 µM; hits with a dose series show IC50 in µM | 0.2% of 10,000 active;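 active = top tenth filtered wells with inhibition above zero that passed visual or statistical confirmation; inactive = the rest, including hits rejected on review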;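 note: 0% = stimulated vehicle wells and 100% = unstimulated cells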
* = called active by the depositor; i = inactive; . = no result given.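 Rule for the calls, unless noted: active = mean above 30%; inconclusive = self-fluorescent; inactive = the rest.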

SMILES	VCAM-1 down	VCAM-1 up imaging	FPR ligand	FPRL1 binder	VCAM-1 down imaging
COc1cccc(Oc2nnnn2-c2ccccc2)c1	.	.	-4	-2	.
CC(COc1ccccc1)N(CCCl)Cc1ccccc1 (stereo not drawn)	i	i	-3	8	i
Cc1cccn2c(=O)c3cc(C#N)c(=NC(=O)c4cccnc4)n(CC4CCCO4)c3nc12 (stereo not drawn)	i	i	4	6	i
CC(C)C(NC(=O)C1CCCCC1)C(=O)NC1CCN(Cc2ccccc2)CC1 (stereo not drawn)	.	.	-9	5	.
Cc1cc(N=Cc2cc(Br)ccc2O)no1	i	i	6	0	i
O=S(=O)(NCCSc1ccccc1)c1cccs1	i	i	1	-7	i
CC(C)N(CCNC(=O)C1CCC(=O)N1Cc1ccc(F)cc1)Cc1ccccc1 (stereo not drawn)	.	.	-3	2	.
CCS(=O)(=O)N1CCCC(C(=O)NCCc2ccc(OC)c(OC)c2)C1 (stereo not drawn)	i	i	-6	0	i
COc1ccc(-c2nc3n(c(=O)c2C#N)CCCS3)cc1	.	.	-2	-14	.
CCOCCCN1C(=O)CN(C2CCCCCC2)C(=O)C1c1ccc(OC)cc1 (stereo not drawn)	.	.	-2	6	.
Cc1onc(-c2ccccc2Cl)c1C(=O)Nc1ccc(-c2cn3cccnc3n2)cc1	.	.	1	-4	.
CCOC(=O)N1CCC(NC(=O)CCc2nc(-c3ccc(C)cc3)no2)CC1	.	.	-2	-2	.
COC(=O)Cn1c(=O)c2c(nc3n2CC(C)CN3c2ccc(C)c(C)c2)n(C)c1=O (stereo not drawn)	i	i	-7	-1	i
COc1ccc(-c2noc(CN3C(=O)c4ccccc4C3=O)n2)cc1	i	i	-6	1	i
COc1ccc(C2C(C(=O)NCC3CCCO3)CCC(=O)N2c2ccc3c(c2)OCO3)cc1 (stereo not drawn)	.	.	-1	14	.
COc1cccc(C2NC(CC(C)C)(C(=O)O)C3C(=O)N(Cc4ccccc4)C(=O)C23)c1O (stereo not drawn)	.	.	21	6	.
O=C1CCC(=O)N1c1cccc(-c2nc3ccccc3o2)c1	.	.	-1	3	.
CN1CCc2c(sc3c2C(=O)NC(c2cccc(OC(=O)c4cccs4)c2)N3)C1 (stereo not drawn)	73	i	2	0	i
COc1ccc(C(=O)c2coc3ccc(O)c(CN4CCOCC4)c23)cc1	.	.	-3	4	.
COc1cccc(CN2C(=O)C3(C(C#N)=C(N)OC4=C3C(=O)CCC4)c3ccccc32)c1 (stereo not drawn)	i	i	1	-4	i
CC1CCC(NS(=O)(=O)c2ccc3c(c2)n(C)c(=O)c(=O)n3C)CC1 (stereo not drawn)	.	.	-2	-5	.
CN1C(=O)NC(c2ccc(O)cc2)C(C(=O)c2cccs2)C1(O)C(F)(F)F (stereo not drawn)	.	.	5	5	.
O=C(Nc1cccc(C(=O)N2CCOCC2)c1)c1cccnc1	i	i	-4	0	i
COc1cc(NC(=O)c2c(F)cccc2F)nc(OC)n1	.	.	1	-4	.
CCOc1ccc(C2CC(c3ccc(F)cc3)Nc3nc(N)nn32)cc1 (stereo not drawn)	.	.	-4	-4	.
CCn1c(=O)cc(OCC(=O)Nc2cc(C)ccn2)c2ccccc21	i	i	0	-3	i
Cc1ccc2c(c1)CCCN2C(=O)C1CCCO1 (stereo not drawn)	i	i	-2	-1	i
CC(C)(C)n1cnc2cc(NS(=O)(=O)c3ccc(Br)cc3)ccc21	i	i	1	6	i
CSc1ccccc1NC(=O)c1onc(C)c1Cl	.	.	-12	-4	.
CCC(CC)C(=O)Nc1cccc(C(=O)NCc2ccco2)c1	i	i	-7	2	i
O=C(CCc1ccc(S(=O)(=O)N2CCOCC2)cc1)NCCc1ccccn1	i	i	-3	5	i
Cc1ccc2c(c1)N(CC(=O)NC1CCC(C)CC1)C(=O)CO2 (stereo not drawn)	.	.	1	-1	.
CCC1CCCCN1CCn1c(=S)[nH]c2cc(OC)c(OC)cc2c1=O (stereo not drawn)	.	.	-2	-4	.
Cc1ccccc1-c1nc(CS(=O)CC(=O)NCCCN(C)c2ccccc2)c(C)o1 (stereo not drawn)	.	.	-4	-1	.
CC(=O)Nc1c(O)nc(SCC(=O)Nc2nnc(CC(C)C)s2)[nH]c1=O	i	i	7	0	i
Cc1ccccc1-c1nc(CN2CCC(C(=O)N3CCN(c4ccccn4)CC3)CC2)c(C)o1	.	.	-5	1	.
CCCNC(=O)Cn1cnc2sc(C(=O)N3CCN(CCC)CC3)c(C)c2c1=O	.	.	-2	-3	.
CC1(C)CC(=O)c2cc(OCC(=O)N3CCN(c4ccccc4F)CC3)ccc2O1	i	i	14	10	i
CC(C)C(OC(=O)c1ccco1)C(=O)NCc1ccccc1 (stereo not drawn)	i	i	0	-3	i
COC(=O)C1OC2(OC1C(=O)OC)c1ccccc1-c1ccccc12 (stereo not drawn)	.	.	3	1	.
Cc1cc(=O)n(CCO)c(O)c1C#N	i	i	-2	9	i
CCOc1ccccc1N1C(=O)c2cccnc2C1=O	.	.	-8	-3	.
Cc1c(C(=O)N2CCN(c3ccccc3F)CC2)sc2nc(-c3ccccc3)cn12	.	.	11	11	.
COc1ccc(/C(O)=C2/C(=O)C(=O)N(c3ncccn3)C2c2ccc(OC)c(OC)c2)cc1 (stereo not drawn)	.	.	9	11	.
COc1cc(OC)nc(NC(=O)CSc2nc3ccccc3o2)n1	i	i	5	7	i
Cc1ccccc1CS(=O)(=O)Cc1ccc(C(=O)NCCCN2CCOCC2)o1	i	i	1	7	i
COc1cccc(C2=Nn3c(nnc3-c3ccccc3O)SC2)c1	i	i	0	-4	i
COc1ccccc1Cn1nnc2c(=O)[nH]c(C3CCN(C(=O)c4ccccc4Cl)CC3)nc21	i	i	-3	2	i
COc1cc(OC)c(C2N(c3ccccn3)C(=O)C3CCCN32)cc1OC (stereo not drawn)	.	.	2	6	.
O=C1NCCCc2c1oc1cc(Br)c(O)c(Br)c21	.	.	10	1	.
O=C(CSc1nnc(-c2cccs2)o1)N1CCOCC1	i	i	-4	-10	i
Cc1noc(C)c1S(=O)(=O)N1CCCC(C(=O)NCCc2ccc(Cl)cc2)C1 (stereo not drawn)	i	i	7	3	i
COc1ccccc1NC(=O)CSc1nnc(CNC(=O)COc2ccc(Cl)cc2)o1	.	.	4	0	.
O=[N+]([O-])c1cccc2cn[nH]c12	i	i	-4	2	i
CCOC(=O)c1c(C)oc2ccc(OCC(N)=O)cc12	i	i	-5	-1	i
COc1ccc2[nH]c3c(c2c1)CN(C)CC3	.	.	4	-2	.
CCc1ccccc1NC(=O)CSC1=C(C#N)C(c2ccc(O)c(OC)c2)C2=C(CCCC2=O)N1 (stereo not drawn)	i	i	8	0	i
O=C(CSc1ncnc2c1nnn2Cc1ccccc1F)N1CCN(c2ccccc2)CC1	.	.	18	15	.
CC(C)Cn1cc(C(=O)N2CCOCC2)c2c3ccccc3n(C)c2c1=O	.	.	-1	-4	.
CCOC(=O)N1CCC(NC(=O)c2ccc3nc(N4CCOCC4)sc3c2)CC1	i	i	10	-1	i

Exported comma-delimited: twelve of the compounds above
Structure,VCAM-1 down,VCAM-1 up imaging,FPR ligand,FPRL1 binder,VCAM-1 down imaging
COc1cccc(Oc2nnnn2-c2ccccc2)c1,.,.,-4,-2,.
CC(COc1ccccc1)N(CCCl)Cc1ccccc1 (stereo not drawn),i,i,-3,8,i
Cc1cccn2c(=O)c3cc(C#N)c(=NC(=O)c4cccnc4)n(CC4CCCO4)c3nc12 (stereo not drawn),i,i,4,6,i
CC(C)C(NC(=O)C1CCCCC1)C(=O)NC1CCN(Cc2ccccc2)CC1 (stereo not drawn),.,.,-9,5,.
Cc1cc(N=Cc2cc(Br)ccc2O)no1,i,i,6,0,i
O=S(=O)(NCCSc1ccccc1)c1cccs1,i,i,1,-7,i
CC(C)N(CCNC(=O)C1CCC(=O)N1Cc1ccc(F)cc1)Cc1ccccc1 (stereo not drawn),.,.,-3,2,.
CCS(=O)(=O)N1CCCC(C(=O)NCCc2ccc(OC)c(OC)c2)C1 (stereo not drawn),i,i,-6,0,i
COc1ccc(-c2nc3n(c(=O)c2C#N)CCCS3)cc1,.,.,-2,-14,.
CCOCCCN1C(=O)CN(C2CCCCCC2)C(=O)C1c1ccc(OC)cc1 (stereo not drawn),.,.,-2,6,.
Cc1onc(-c2ccccc2Cl)c1C(=O)Nc1ccc(-c2cn3cccnc3n2)cc1,.,.,1,-4,.
CCOC(=O)N1CCC(NC(=O)CCc2nc(-c3ccc(C)cc3)no2)CC1,.,.,-2,-2,.

Next section:
SMILES	VCAM-1 down	VCAM-1 up imaging	FPR ligand	FPRL1 binder	VCAM-1 down imaging
CCCC(=O)N1CCN(S(=O)(=O)c2cc(Cl)ccc2OC)CC1	.	.	-1	1	.
COCc1[nH]nc2c1C(C1C=CCCC1)C(C#N)=C(N)O2 (stereo not drawn)	i	i	-6	4	i
CCOC(=O)c1cc(-c2ccccc2)n(CC(=O)O)c1C	.	.	1	3	.
O=C(CN1CCN(S(=O)(=O)c2ccc(F)cc2)CC1)Nc1ccc2c(c1)OCO2	.	.	7	3	.
Cc1ccc(S(=O)(=O)N2CCN(C(=O)CN3C(=O)NC4(CCOc5ccccc54)C3=O)CC2)cc1 (stereo not drawn)	i	i	-4	1	i
CN(C)CCn1c(C(=O)Nc2ccccc2)cc2ccccc21	.	.	0	-4	.
COCCN1CSC(=S)N(Cc2ccco2)C1	.	.	-5	10	.
CCn1c(=O)cc(SCC(=O)NCCN2CCN(Cc3ccccc3)CC2)c2ccccc21	i	i	0	4	i
CCC1Sc2ccccc2N(CC(=O)NCCC(C)C)C1=O (stereo not drawn)	.	.	3	-16	.
Fc1ccccc1N1CCN(c2nc3ccccc3n3nnnc23)CC1	.	.	-24	-21	.
Cn1c(SCC(=O)Nc2ccccc2F)nnc1-c1cccnc1	.	.	-8	0	.
COc1ccc(Cc2nc(-c3ccc(Br)o3)no2)cc1OC	.	.	3	3	.
COC(=O)c1cc2oc(C)cc2n1CC(=O)N(C)c1ccccc1	i	i	0	0	i
Cc1oc(-c2cccc(Cl)c2)nc1CN1CCC(C(=O)NCc2ccco2)CC1	.	.	-2	-2	.
O=C(CCN1C(=O)C2CC=C(Cl)CC2C1=O)NC1CCCCC1 (stereo not drawn)	.	.	1	8	.
COc1cc2c(cc1OC)CN(CC(=O)Nc1cccc(C)c1)CC2	i	i	-11	1	i
CCn1c(=O)n(CC(=O)Nc2cccc(OC)c2)c(=O)c2ccccc21	.	.	-1	2	.
CCOc1cc(C)c(C(C)C)cc1S(=O)(=O)N1CCN(C)CC1	i	i	0	3	i
COc1ccccc1CNC(=O)CN(c1ccc(C)cc1)S(=O)(=O)c1c(C)nn(C)c1C	.	.	9	4	.
Cc1nc2ccccc2c2oc(C(=O)N3CCC(N4CCCCC4)CC3)cc12	i	i	-1	-1	i
O=C(c1ccco1)N1CCN(S(=O)(=O)c2ccc(C3CCCCC3)cc2)CC1	i	i	-1	0	i
CCCNS(=O)(=O)c1cc(Br)cc2c1N(C(=O)CC)CC2	.	.	-6	-8	.
O=S(=O)(c1cccc(-c2nnco2)c1)N1CCCC1	i	i	-2	-1	i
Cn1c(=Nc2ccc(N3CCOCC3)cc2)ccc2ccccc21	.	.	-4	-6	.
Cc1nc(NC(=O)C23CCC(C)(C(=O)O2)C3(C)C)sc1C (stereo not drawn)	i	i	9	1	i
Cn1c(SCC(=O)Nc2ccc(F)cc2F)nnc1-c1cccnc1	.	.	-4	-2	.
COc1cccc(-c2cc(C(F)(F)F)nc(N3CCC(C)CC3)n2)c1	.	.	-14	2	.
CN(C)S(=O)(=O)c1ccc(S(=O)(=O)N2CCN(CCC#N)CC2)cc1	.	.	-4	3	.
CCC(C(=O)NCc1ccco1)n1nc(-c2ccc(OC)cc2)ccc1=O (stereo not drawn)	.	.	0	-7	.
CCOc1ccc(C2/C(=C(/O)c3ccc(OC)cc3)C(=O)C(=O)N2c2cc(C)on2)cc1OC (stereo not drawn)	i	i	0	2	i
CC(C)(C)c1ccc(-c2cc(N)n[nH]2)cc1	.	.	0	-2	.
C1CSC2(N1)C1CC3CC(C1)CC2C3 (stereo not drawn)	.	.	-3	-2	.
CCn1cc(C(=O)NCc2ccco2)c(=O)c2cc(F)c(N3CCN(C(=O)c4ccco4)CC3)cc21	i	i	8	-1	i
O=c1c2ccccc2[nH]c(=S)n1CCN1CCC(=C(c2ccc(F)cc2)c2ccc(F)cc2)CC1	i	i	-3	-11	i
Cn1c(=O)c2c(O)cc(=O)n(-c3ccccc3)c2n(C)c1=O	.	.	-1	-4	.
CN(C(=O)c1ccno1)c1nnc(-c2cnccn2)s1	i	i	-3	3	i
Cc1cc(C(=O)Nc2sc3c(c2C#N)CCCC3)no1	.	.	-2	-3	.

This is a subset. The share of hits here may be higher or lower than overall.
